Ecoli growth – E. coli growth inhibition, primary screen, OD600 | Escherichia coli growth, 23 h; active compounds read low | OD600 absorbance (concentration not given with the values) | 0.21% of 330,000 active | AID 1053175, 2014;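 active = OD600 absorbance below the run mean of sample wells minus 3.6 SD, in any replicate, cut at about 0.56 in these data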;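 note: stock transfer was 300 nL into about 60 µL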
The depositor's hits bear a star; & = joins results of further samples. This is a subset; count on the stated rates, not on these rows.

SMILES | Ecoli growth
CC(SCc1ccccc1)C(=O)NN=Cc1ccc(OCC(=O)NCc2ccco2)cc1 (stereo unspecified) | 0.67
CC(=NNC(=O)c1nn(C)c(C)c1Br)c1cccc(NC(=O)c2ccoc2C)c1 | 0.63
CCC(C)[C@H](NC(=O)OC(C)(C)C)C(=O)NN=Cc1ccc2cc(OC)ccc2n1 (stereo partly specified) | 0.68
CCN1CC2C3C(=O)N(Cc4ccccc4)C(=O)C3[C@](C)(C1=O)N2C(=O)c1ccc(Br)cc1 (stereo partly specified) | 0.72
CCOC(=O)COc1c(C=NOC)cc(Cl)cc1OC | 0.68
C(=Nn1c2ccccc2c2ccccc21)c1ccco1 | 0.69
C=C(C)C1CCC2(C(=O)O)CC[C@]3(C)C(CCC4[C@@]5(C)CCC(=O)C(C)(C)C5CC[C@]43C)C12 (stereo partly specified) | 0.69
COc1ccc(C2CC(=O)C=C(c3ccc4[nH]ccc4c3)C2)cc1OC (stereo unspecified) | 0.69
CN(C)C(=O)C[n+]1ccc(C=NO)cc1 | 0.69
Cn1c(=O)c2c(nc(NN=Cc3cccnc3)n2Cc2ccccc2)n(C)c1=O | 0.71
CCC1=C(OC(=O)N(CC)CC)N2C(=O)OC(=NCC(=O)OC)[C@]2(Cc2ccccc2)C2C1=CCC1C(=O)NC(=O)C12 (stereo partly specified) | 0.7
Cc1ccc(C(C)C)c(OCc2ccc(C(=O)NN=Cc3ccc(O)c(O)c3)cc2)c1 | 0.71
O=C(NN=Cc1cccc([N+](=O)[O-])c1)c1cc(-c2ccccc2)nc2ccccc12 | 0.72
CN=c1scc(C)n1N=Cc1cc(Br)c(O)c(OC)c1 | 0.71
COc1ccccc1Sc1ccccc1C=NNC(N)=O | 0.76
Nc1nonc1C(=O)NN=Cc1ccc(-c2cccc([N+](=O)[O-])c2)o1 | 0.7
Cc1ccccc1-c1nc2ccccc2c(=O)n1N=Cc1ccc([N+](=O)[O-])cc1 | 0.68
COc1ccc(C(C)=NOC/C(O)=C(\C#N)c2nc3ccccc3[nH]2)cc1OC | 0.66
COC(=O)NN=Cc1cn(CCOc2ccc(OC)cc2)c2ccccc12 | 0.67
CC(=NNC(=O)Cc1c(C)[nH][nH]c1=O)c1ccc(O)cc1 | 0.72
CC(C)CC(NC(=O)c1nc[nH]c1C(=O)N(C)Cc1ccccc1)C(=O)OCc1ccccc1 (stereo unspecified) | 0.68
O=C(NN=CC1CCCCC1)c1ccccc1-n1cccc1 | 0.68
COc1cccc(C2C(C(=O)OC(C)C)=C(C)N=c3sc(=Cc4ccc(C(=O)O)cc4)c(=O)n32)c1 (stereo unspecified) | 0.64
COC(=O)C1CC1C(NC(=O)c1ccccc1)c1ccccc1 (stereo unspecified) | 0.64&0.7
CCN1C(=O)C2C(c3ccc(C)cc3)N3C(=O)N(c4cccc(Br)c4)C(=O)[C@@]3(Cc3ccccc3)C2C1=O (stereo partly specified) | 0.66
CC(=NNC(N)=S)c1ccc(Br)s1 | 0.62
CCCCC12CN3CCN(CC(C3)C1=NNC(=O)c1ccccc1N)C2 | 0.69
CC1CN(C(C)CO)C(=O)c2cccc(NC(=O)Nc3ccc(F)cc3)c2OC1CN(C)Cc1ccccc1 (stereo unspecified) | 0.67
COc1ccc(NC(C)=C2C(=O)C(=O)N(CCO)C2c2ccc([N+](=O)[O-])cc2)cc1 (stereo unspecified) | 0.67
CCCCNC(=O)C1CCCN1S(=O)(=O)c1cccc2cccnc12 (stereo unspecified) | 0.67
CCCc1sc(NN=Cc2ccccn2)nc1-c1ccc(F)cc1 | 0.73
CC1CN=C(N(C)C)N1CC1CCC(C(C)(C)C)CC1 (stereo unspecified) | 0.64
CC(=NNS(=O)(=O)c1ccc(C)c([N+](=O)[O-])c1)c1ccc2c(c1)OCO2 | 0.69
O=C(Nc1cccc(Cl)c1)ON=Cc1ccncc1 | 0.68
CC(C)NC(=O)N(C)CC1Oc2ccc(NC(=O)C3CCCCC3)cc2C(=O)N(C(C)CO)CC1C (stereo unspecified) | 0.71
C=C(C)C1CC=C(C)C(=NNC(=O)CNc2ccc(OCC)cc2)C1 (stereo unspecified) | 0.68

Ordered by molecular weight (high to low): some entries from above.
SMILES | Ecoli growth
CCN1C(=O)C2C(c3ccc(C)cc3)N3C(=O)N(c4cccc(Br)c4)C(=O)[C@@]3(Cc3ccccc3)C2C1=O (stereo partly specified) | 0.66
Cc1ccc(C(C)C)c(OCc2ccc(C(=O)NN=Cc3ccc(O)c(O)c3)cc2)c1 | 0.71
COc1ccc(C(C)=NOC/C(O)=C(\C#N)c2nc3ccccc3[nH]2)cc1OC | 0.66

Carrying on:
SMILES | Ecoli growth
NC(Cn1cncn1)=NNC(=O)c1ccc(Cl)cc1Cl | 0.65
COC(=O)C1=C(C)N(Cc2ccccc2)C(=O)NC1c1cccs1 (stereo unspecified) | 0.64
O=C(COc1ccccc1[N+](=O)[O-])NN=C/C=C/c1ccco1 | 0.69
COC(=O)c1ccc(C=Cc2c(-c3ccc(OC)cc3)sc3ccccc23)cc1 | 0.74
OCC1OC(O)C(O)C1O (stereo unspecified) | 0.69
CCOC(=O)C1C2COc3ccccc3C2N2C(=O)CN(CC3CCCO3)C(=O)[C@@]12C (stereo partly specified) | 0.68
O=C1NCCCC1=NNc1cc(F)ccc1F | 0.68
Cc1cc(Br)c(OCc2ccc(C(=O)NN=C3CC(=O)CC(C)(C)C3)cc2)c(Br)c1 | 0.73
O=C(NN=Cc1ccc(-c2ccc([N+](=O)[O-])cc2)o1)C(O)c1ccccc1 (stereo unspecified) | 0.71
COC(=O)C(=NOCc1ccc(C#N)cc1)c1c(C)nn(C)c1C | 0.71
CCOc1ccccc1C=c1sc2nc(-c3ccco3)nn2c1=O | 0.71
Nc1ccc(C(=O)NN=Cc2cc(N=Nc3cccc4ccccc34)ccc2O)cc1 | 0.64
Cc1ccccc1C(=O)Nc1ccc(C(=O)NN=Cc2ccc(O)c(Br)c2)cc1 | 0.65
CCCCN1C(Nc2ccccc2)=NCC1Cc1ccccc1 (stereo unspecified) | 0.7
COc1ccc(C=NNC(=O)CCCOc2ccc(Cl)cc2Cl)cc1[N+](=O)[O-] | 0.77
COc1ccc(S(=O)(=O)N(C)CC2Oc3ccc(NS(C)(=O)=O)cc3C(=O)N(C(C)CO)CC2C)cc1 (stereo unspecified) | 0.66
CC(Cn1cnc([N+](=O)[O-])n1)=NNC(=O)c1ccccc1 | 0.68
C#CCOCCOCCOCCNc1nc(N2CCN(C(=O)Cn3cc(CCCCN)nn3)CC2)nc(N2CCN(C(=O)C(C(C)CC)n3cc(CCCCN)nn3)CC2)n1 (stereo unspecified) | 0.66
COc1ccccc1C=NNc1ccccc1[N+](=O)[O-] | 0.7
CC(=NNC(=O)c1ccc(Cl)c(Cl)c1)c1cccc(NC(=O)C(C)C)c1 | 0.69
Cc1ccc(C=NNC(=O)c2nnn(-c3nonc3N)c2C(C)C)s1 | 0.75
Fc1ccc(C=NNC(=S)Nc2ccc(Cl)cc2Cl)cc1 | 0.71
Cc1nnc(NN=Cc2c(Cl)cccc2Cl)n1N | 0.64
CC1CN(C(C)CO)C(=O)c2cc(NS(=O)(=O)c3cn(C)cn3)ccc2OC1CN(C)Cc1ccc(C(=O)O)cc1 (stereo unspecified) | 0.71
CS/C(N)=N/N=Cc1c(O)ccc2ccccc12 | 0.67
CC(C)(C)C1COC(=O)C(NC(=O)OCC2c3ccccc3-c3ccccc32)CC=CCC(CC(=O)N(CCO)Cc2ccccc2)C(=O)N1 (stereo unspecified) | 0.71
Cc1ccc(C=NNC(=O)CN2C(=O)CSc3ccccc32)o1 | 0.62
CC(C)Oc1ccc(C=NNC(=O)c2nnn(-c3nonc3N)c2CN(C)C2CCCCC2)cc1 | 0.63
CC(=O)OCC1OC(OCc2cn(CC3CCC(C4CCC(Cn5cc(COC6OC(COC(C)=O)C(OC(C)=O)C(OC(C)=O)C6OC(C)=O)nn5)O4)O3)nn2)C(OC(C)=O)C(OC(C)=O)C1OC(C)=O (stereo unspecified) | 0.69
C(=NNc1ccccn1)c1ccc2c(c1)OCCO2 | 0.6
CCOc1ccc(CON=Cc2c(C)[nH]c(=O)[nH]c2=O)cc1 | 0.7
COC(=O)c1ccccc1NC(=O)CC(C)=NNC(=O)CC#N | 0.66
CC(=O)Nc1ccc(S(=O)(=O)NN=Cc2cccnc2)cc1 | 0.72
CCN(CC)Cc1c(C(=O)NN=Cc2ccc(C)o2)nnn1-c1nonc1N | 0.71
Cc1ccc(S(=O)(=O)N2C(c3cccc(C)c3)CC=C(C(=O)O)C2c2ccc(Cl)cc2)cc1 (stereo unspecified) | 0.67
COc1ccc(OC)c(C=NN(C)c2ccccc2)c1 | 0.68
COc1ccc(S(=O)(=O)NN=C(C)c2ccncc2)cc1OC | 0.63
Cn1cc([N+](=O)[O-])c(C(=O)NN=Cc2ccncc2)n1 | 0.73
Cc1cccc(NC(=O)c2nc[nH]c2C(=O)NC(CCCCNC(=O)OC(C)(C)C)C(=O)OC(C)(C)C)c1 (stereo unspecified) | 0.72
CC(=O)OC1[C@@]2(C)OC2CC[C@]23OC2C(OC3=O)C2=C(C)C(=O)O[C@@]21O (stereo partly specified) | 0.7
COc1ccc2ccccc2c1C=NNC(=S)Nc1cc(S(=O)(=O)N2CCOCC2)ccc1N1CCOCC1 | 0.68
COc1ccc(C=c2sc3nc(=O)c(C)nn3c2=O)c(OC)c1 | 0.67
CC(=O)Nc1ccccc1NC(=O)CC(C)=NNC(=O)c1cccnc1 | 0.72
O=C(NN=Cc1ccccn1)c1[nH]c2ccc([N+](=O)[O-])cc2c1-c1ccccc1 | 0.73
CCOc1ccc(C=C(NC(=O)c2ccccc2Cl)C(=O)O)cc1 | 0.69
Cc1ccc(-c2c(C(=O)NN=Cc3sccc3C)nnn2-c2nonc2N)cc1 | 0.7
COc1ccc(C(N)=NOC(=O)c2ccc(C)c([N+](=O)[O-])c2)cc1 | 0.66
O=C(Cn1nc2n(c1=O)-c1ccccc1SC2)NN=Cc1cccnc1 | 0.66

Shown as tab-separated lines: three of the compounds above.
molecule	Ecoli growth
C#CCOCCOCCOCCNc1nc(N2CCN(C(=O)Cn3cc(CCCCN)nn3)CC2)nc(N2CCN(C(=O)C(C(C)CC)n3cc(CCCCN)nn3)CC2)n1 (stereo unspecified)	0.66
COc1ccccc1C=NNc1ccccc1[N+](=O)[O-]	0.7
CC(=NNC(=O)c1ccc(Cl)c(Cl)c1)c1cccc(NC(=O)C(C)C)c1	0.69

(cont.)
SMILES | Ecoli growth
CCOC1OC(C(=O)O)=CC(C2CCCCC2)C1CCCO (stereo unspecified) | 0.69&0.67
COc1ccc(C(=O)C(C#N)=NNc2cccc([N+](=O)[O-])c2)cc1 | 0.65
S=c1[nH]nc(-c2ccncc2)n1N=Cc1ccccc1 | 0.7
COc1ccc(C=NNc2ccc(C(F)(F)F)cc2[N+](=O)[O-])cc1 | 0.7
COc1ccc(OC)c(C=NNC(=O)c2ccc3nc[nH]c3c2)c1 | 0.68
CC(=O)Nc1ccc(C=NOCC(=O)Nc2ccc(C)cc2)cc1 | 0.71
O=C(NN=Cc1cccc([N+](=O)[O-])c1O)C1COc2ccccc2O1 (stereo unspecified) | 0.64
Cc1ccc(-c2c(C(=O)NN=Cc3ccsc3)nnn2-c2nonc2N)cc1 | 0.69
Cc1ccc(NC(=O)CSc2nnc(N=CN(C)C)s2)cc1 | 0.72
Cc1nn(-c2ccccc2)c(N2CCCC2)c1C=NNC(=S)Nc1cc(C(F)(F)F)ccc1Cl | 0.64
COc1ccc(C2CC(=NO)C(C)(C)O2)cc1 (stereo unspecified) | 0.64
COc1ccc(C=Cc2c(-c3cccc(C)c3)oc3ccc(N4CCOCC4)cc23)cc1 | 0.73

Next part, overlapping the part above by 5 compounds.
SMILES | Ecoli growth
Cc1ccc(-c2c(C(=O)NN=Cc3ccsc3)nnn2-c2nonc2N)cc1 | 0.69
Cc1ccc(NC(=O)CSc2nnc(N=CN(C)C)s2)cc1 | 0.72
Cc1nn(-c2ccccc2)c(N2CCCC2)c1C=NNC(=S)Nc1cc(C(F)(F)F)ccc1Cl | 0.64
COc1ccc(C2CC(=NO)C(C)(C)O2)cc1 (stereo unspecified) | 0.64
COc1ccc(C=Cc2c(-c3cccc(C)c3)oc3ccc(N4CCOCC4)cc23)cc1 | 0.73
COC(=O)c1cccc(Cn2c(Cl)c(C=NNc3ccccc3C)sc2=O)c1 | 0.72
C=C(C)C(=O)Nc1cccc(C2=NOC3(C2)CC(C(N)=O)N(C(=O)CCCCC)C3)c1 (stereo unspecified) | 0.69
O=C(NC=NO)C1=NOC(CNc2ncc(C(F)(F)F)cc2Cl)C1 (stereo unspecified) | 0.72
COc1ccc(OC)c(C(C)=NNc2ccc(C(=O)O)cc2)c1 | 0.69
CC(C)(C)OC(=O)NCCCCC(NC(=O)c1nc[nH]c1C(=O)NCc1ccccc1)C(=O)OC(C)(C)C (stereo unspecified) | 0.69
COc1ccc(OCC(=O)NN=Cc2ccsc2)cc1 | 0.69
O=C1NC2(CCCCC2)C(=O)N1N=Cc1ccccc1Br | 0.67
CC1CCN(C(=O)c2[nH]cnc2C(=O)NC(CCCCNC(=O)OC(C)(C)C)C(=O)OC(C)(C)C)CC1 (stereo unspecified) | 0.66
Cc1ccccc1C(=O)NN=Cc1ccsc1C | 0.62
O=C(Cc1cccs1)NN=Cc1ccccc1 | 0.67
CC(C)CC(NC(=O)c1nc[nH]c1C(=O)N1CCc2ccccc2C1)C(=O)OCc1ccccc1 (stereo unspecified) | 0.7
O=C(NN=Cc1cc(Br)c(O)c(Br)c1)c1cccnc1 | 0.67
COc1ccccc1C(=O)NCC(=O)NN=Cc1ccc([N+](=O)[O-])cc1 | 0.67
N=C1N(N=Cc2ccccc2)C(=Nc2ccccc2)C(=S)N1c1ccccc1 | 0.71
COc1cc(C=NN=C(N)c2nonc2N)ccc1O | 0.66
Cc1ccc(Sc2nc3ccc(C)cn3c(=O)c2C=NO)cc1 | 0.68
Cc1ccc(NC(=O)C=NOCC(=O)NCc2ccccc2Cl)cc1 | 0.7
CC(C)C[C@@]12C(=O)N(c3cccc(Br)c3)C(=O)N1C(c1ccc(Cl)cc1)C1C(=O)N(C3CCCCC3)C(=O)C12 (stereo partly specified) | 0.73
CCN(CC)S(=O)(=O)c1ccc(NN=Cc2ccc(O)cc2O)nc1 | 0.68

Assay outcomes from PubChem BioAssay.
